Source: PubChem (National Center for Advancing Translational Sciences (NCATS))
Anthrax LT inh – qHTS Assay for Anthrax Lethal Toxin Internalization | Cells, anthrax lethal toxin internalization, FRET ratio (460/530) | Potency, µM (series often up to 40 µM), for inactives: at the top dose activity change, negative = inhibition, actives largely listed as inhibitors | hit rate 0.67% among 70,000 | AID 912, 2007; active = well fitted falling ratio curve with the 530 nm signal flat; inconclusive = other ratio curves, or a change in one channel alone; inactive = flat curves in the ratio and both channels; the % refers to the ratio; note: % is set by controls: 0 for no effect and ±100 for the full control effect; nearly all actives have a fitted effect of over 50% in size; tested in ME-180 cells; beta-lactamase reporter
Prx2 Sm inh – Schistosoma Mansoni Peroxiredoxins (Prx2). Schistosoma mansoni peroxiredoxin 2 (Prx2). S. mansoni Prx2 activity coupled to TGR/GSH (TGR is thioredoxin glutathione reductase), NADPH fluorescence loss, qHTS; some inactives read as strong as hits. Potency, µM. hit rate 0.07% among 65,000; active means full or partial inhibition curve with a strong effect at the top dose; inconclusive means weaker partial or single-point curve; inactive means no accepted curve; note: series up to 57 µM; many of its hits are not listed in these tables
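Enzyme mix: 100 uM NADPH, 25 nM TGR, 700 uM GSH, 50 nM Prx2 in 100 mM phosphate pH 7.4, 10 mM EDTA, 0.01% Tween-20. 15 min RT with compound; NADPH/GSH added, H2O2 starts reaction; NADPH fluorescence read 8 min.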
Numbers without * were called inactive; ? = inconclusive; · = not tested or not shown; & = joins results of further samples; [ ] = another dose, or the depositor's remark. Potency is the fitted concentration of half-maximal effect. A portion of the library; the hit share may differ from the screen's.

#	SMILES	Anthrax LT inh	Prx2 Sm inh
1	CCN1C[C@@]2(COC)CC[C@H](OC)[C@]34[C@@H]1[C@]1(OCO[C@@]15C[C@@H](OC)C1C[C@H]3[C@H]5[C@@H]1OC)[C@H](O)[C@@H]24	11%[3.58 µM]	>57
2	CC1Cc2ccccc2N1C(=O)CSc1nnc(-c2ccc(S(=O)(=O)N3CCCCC3)cc2)o1 (configuration not stated)	-2%	>57
3	CCC1CCCCN1CCCNC(=O)c1cn(CC(C)C)c(=O)c2cc(OC)c(OC)cc12 (configuration not stated)	-24%	>57
4	CC(=O)c1cccc(NC(=O)CN(c2ccccc2)S(C)(=O)=O)c1	4%	>57
5	Cn1c(C(=O)N2CCC(C(=O)N3CCOCC3)CC2)cc2sccc21	-3%	>57
6	O=C(O)c1nn(-c2ccc(Cl)cc2)ccc1=O	-5%	>57
7	CCN(CCNC(=O)CC1Oc2ccccc2NC1=O)c1ccccc1 (configuration not stated)	0%	>57
8	NCCc1c[nH]c2ccccc12	-6%	>57
9	COc1ncc2nc(C)c(=O)n(Cc3ccc(F)cc3)c2n1	2%	>57
10	Cc1ccc(C)c(N2CCN(C(=O)C3CCN(c4nc(C)cc(C)n4)CC3)CC2)c1	?	>57
11	O=C(Nc1cccc(-c2nc3ccccc3[nH]2)c1)c1ccco1	-1%	>57
12	COc1ccccc1N1CCN(C(=O)c2ccncc2)CC1	2%	>57
13	COc1ccc2c3c1O[C@@H]1C(=O)CC[C@@]4(O)[C@@H](C2)N(CC2CC2)CC[C@]314	-3%	>57
14	COC(=O)CSc1nnc(-c2ccco2)n1Cc1ccco1	-6%	>57
15	O=C(CC(=O)c1ccccc1)Nc1ccc2c(c1)OCCO2	?	>57
16	Cc1cc(C)n(-c2nc3c(c(=O)[nH]c(=O)n3C)n2Cc2ccccc2)n1	-1%	>57
17	COC(=O)c1cc(=O)nc2sccn12	-2%	>57
18	COCCn1c(=O)c(-c2ccc(F)cc2)nc2cnc(OCc3ccccc3)nc21	-4%	>11
19	CCOC(=O)c1[nH]c2ccc(OC)cc2c1NC(=O)N1CCOCC1	-9%	>57
20	COc1cccc(C2=NOC(C(=O)NCc3ccco3)C2)c1 (configuration not stated)	-10%	>57

Later entries.
#	SMILES	Anthrax LT inh	Prx2 Sm inh
21	O=C(Nc1ccc2c(c1)OCCO2)c1cncc(Br)c1	3%	>57
22	O=C(C1CCN(S(=O)(=O)N2CCC3(CC2)OCCO3)CC1)N1CCc2ccccc2C1	-2%	>57
23	CCCC12CN3CC(C)(CN(C1)C31C(=O)Nc3ccc(C)cc31)C2=O (configuration not stated)	?	>57
24	COc1ccccc1C(=O)NCC(=O)Nc1ccccc1	-42%	>57
25	CN(c1ccc(C(=O)Nc2ccccc2C(=O)N2CCCC2)cc1)S(C)(=O)=O	-1%	>57
26	c1ccc(-n2nnnc2SCCCSc2nc3ccccc3s2)cc1	?	>57
27	O[Si@](CCCN1CCCCC1)(c1ccc(F)cc1)C1CCCCC1	-3%	>57
28	O=C(O)c1ccc(S(=O)(=O)Nc2ccc(F)c(Cl)c2)cc1	?	>57
29	CC(OC(=O)c1cc2sccc2n1C)C(=O)NCCc1ccccc1 (configuration not stated)	-11%	>57
30	CCCCn1c(NCc2ccccc2O)nc2ccccc21	-13%	>57
31	CCOc1ccc(C(=O)CN2CCN(S(=O)(=O)c3ccc(F)cc3)CC2)cc1	1%	>57
32	COc1ccc(CCNC2=NCCS2)cc1	?	>57
33	Cc1ccccc1S(=O)(=O)Cc1ccc(C(=O)N2CCN(c3cccc(C)c3C)CC2)o1	?	>57
34	O=C(COc1ccc(F)cc1)NCC1CCCO1 (configuration not stated)	6%	>57
35	CCOC(=O)c1c(-c2ccccc2)nnn1-c1nc(OCC)nc(N2CCCCC2)n1	-19%	>57
36	CSc1ccc2c(c1)[C@H](N1CCN(C)CC1)Cc1ccccc1S2	?	>57&>57&>57
37	O=C(c1cc2ccccc2oc1=O)N1CCCC1	·	>57
38	COc1cc(NC(=O)CSc2nccc(C)n2)c(C(=O)O)cc1OC	-4%	>57
39	O=C(NCP(=O)(O)O)c1cccnc1	-2%[8 µM]	>57
40	CCn1c(SCC(=O)NC(=O)Nc2ccc3c(c2)OCCO3)nnc1-c1cccs1	0%	>57

Carrying on.
#	SMILES	Anthrax LT inh	Prx2 Sm inh
41	COc1ccc(CNC(=O)c2onc(C)c2Cl)cc1	7%	>57
42	CCCOc1ccc2oc(=O)c3c(c2c1)CCCN3C(=O)CN1CCN(c2ncccn2)CC1	-4%	>57
43	O=S1(=O)C=CC(N2CCOCC2)C1 (configuration not stated)	7%	>57
44	COc1cccc2c1OC1(C)CC2NC(=O)N1c1cccc(C(=O)N2CCN(c3ccccn3)CC2)c1 (configuration not stated)	11%	>57
45	COc1cccc(OC)c1C(=O)N1CC(C)OC(C)C1 (configuration not stated)	1%	>57
46	Cc1cc(C)nc(NC(=NCc2ccc3c(c2)OCO3)NC(=O)Nc2ccccc2)n1	-6%	>57
47	CCOC(=O)C1=C(N)n2c(s/c(=C/c3ccco3)c2=O)=C(C(=O)OC)C1c1ccco1 (configuration not stated)	-13%	>57
48	CC1(C)CC(=O)C(Sc2nnc(-c3ccc(NS(C)(=O)=O)cc3)n2Cc2ccco2)C(=O)C1	-3%	>57
49	COC(=O)c1cccc(-n2nnnc2SCC(=O)Nc2cc(C)on2)c1	-3%	>57
50	CCC(Sc1ccccn1)C(=O)Nc1nnc(C)s1 (configuration not stated)	-6%	>57
51	CC(=O)Nc1cccc(-c2nnc(SCc3ccccc3C#N)n2C)c1	-11%	>57
52	O=c1cc(Nc2ccc3c(c2)OCCO3)[nH]c(=O)n1C1CCCCC1	?	>57
53	O=C(O)C1C(c2ccccc2)C(C(=O)Oc2ccc(O)cc2)C1c1ccccc1 (configuration not stated)	-23%	>57
54	COc1ccc(Cc2nnc(NC(=O)Cc3cccs3)s2)cc1OC	-3%	>57
55	COC(=O)c1ccccc1NC(=O)CSc1nnc(CNS(=O)(=O)c2ccc(C)cc2)n1C	-11%	>57
56	COc1cc2nc3c4ccccc4n(CC#N)c3nc2cc1OC	0%	>57
57	COc1ccc(S(=O)(=O)Cc2ccc(C(=O)N3CCc4ccccc4C3)o2)cc1	-14%	>57
58	Clc1cncc(N2CCNCC2)n1	-11%	>57
59	CCN(CC)c1ccc2c(C)c(CN3CCOCC3)c(=O)oc2c1	?	>57
60	CC1CCCC(C)N1C(=O)Cn1c(SCC(=O)NCc2ccc3c(c2)OCO3)nc2ccccc21 (configuration not stated)	-5%	>57

(list continues)
#	SMILES	Anthrax LT inh	Prx2 Sm inh
61	Cc1csc2nc(CSc3nc4ccccc4o3)c(Br)n12	13µM*	>57
62	COc1ccccc1CNC(=O)c1cnc2sccn2c1=O	2%	>57
63	C#CCCCO/N=C1/[C@H]2O[C@@H]2[C@@H](O)[C@H]2[C@H]1CCn1c(=O)n(Cc3cc4c(cc3Cl)OCO4)c(=O)n12	-8%[8 µM]	·
64	CCN(c1ccccc1)S(=O)(=O)c1ccc2[nH]cc(C(=O)NCCOC)c(=O)c2c1	4%	>57
65	CCOC(=O)CSc1nc2sc(C)c(C)c2c(=O)[nH]1	?	>57
66	O=C(OCC(=O)N1CCOCC1)c1ccc[nH]c1=O	-14%	>57
67	CCOC(=O)c1cc(=O)n2nc(-c3ccccc3F)nc2s1	-5%	>57
68	CCCN1C(=O)c2ccc(C(=O)NCc3ccco3)cc2C1=O	-6%	>57
69	CCOC(=O)c1nnn(-c2nc(N3CCCC3)nc(N3CCCC3)n2)c1-c1ccccc1	-3%	>57
70	CCCc1cc(=O)n2[nH]c(NCc3ccccc3F)nc2n1	-5%	>57
71	CC/C=C\C[C@H]1C(=O)CC[C@@H]1CC(=O)O	6%	>26
72	O=C(CCC1CCCC1)Nc1ccon1	8%	>57
73	O=C1CC(N2CCN(Cc3ccc4c(c3)OCO4)CC2)C(=O)N1CCc1ccccc1 (configuration not stated)	?	·
74	O=C1c2ccccc2C2NC(=O)C3(CCCCC3)N12 (configuration not stated)	-4%	>57
75	Cc1ccsc1C(=O)OCC(=O)NCC1CCCO1 (configuration not stated)	-2%	>57
76	Clc1cccc(Cl)c1Cn1cnc2c(N3CCCCCC3)ncnc21	0%	>57
77	O=C(NCc1ccco1)c1ccccc1NS(=O)(=O)c1cccs1	-3%	>57
78	Cc1ccc(C)c(NC(=O)CSc2nnc([C@@H]3CCCN3C(=O)OC(C)(C)C)o2)c1	·	>57
79	CC(=O)OC(C(=O)NCc1ccco1)c1ccncc1 (configuration not stated)	-2%	>57
80	CCN1CCN(C(=O)c2ccc3c(=O)n(CCC4=CCCCC4)c(=O)[nH]c3c2)CC1	6%	>57

Remaining list, next part:
#	SMILES	Anthrax LT inh	Prx2 Sm inh
81	CC(C)NC(=O)CCCc1cn(C)c2ccccc12	-2%	>57
82	Cc1cccc(Nc2nc(N)nc(CN3CCN(c4ccccc4F)CC3)n2)c1	-16%	>57
83	Cc1ccc(S(=O)(=O)c2nc(-c3cccs3)oc2SCC(N)=O)cc1	6%	>57
84	Fc1ccc2[nH]c3c(N4CCN(C5CCCCC5)CC4)ncnc3c2c1	10%	>57
85	COc1ccc(-c2nnc(-c3cccnc3)o2)cc1OC	25%	·
86	Cc1ccccc1-c1nc(CN2CCC(C(=O)NCC3CCCO3)CC2)c(C)o1 (configuration not stated)	?	>57
87	CN(Cc1ccccc1)c1nnc(N)s1	-2%	>57
88	CCC1CCCCN1P(=O)(c1ccc(C)o1)C(C)(C)C (configuration not stated)	0%	>57
89	CCOc1ccc(CCNC(=O)C2CCCN(c3nnc(-n4cccc4)s3)C2)cc1OCC (configuration not stated)	1%	>57
90	Cn1c(=O)oc2cc(S(=O)(=O)NC3CCCc4ccccc43)ccc21 (configuration not stated)	6%	>57
91	Cc1cc(C)nc(SCc2nnc(SCC(=O)N3CCCc4ccccc43)o2)n1	-22%	>57
92	COC(=O)c1oc2ccc(Br)cc2c1NC(=O)CCN1CCOCC1	-2%	>57
93	CC(=O)Nc1sc(C)c(C)c1CN1CCN(S(=O)(=O)c2ccccc2)CC1	3%	>57
94	Cc1csc(NC(=O)CCN2C(=O)c3ccccc3S2(=O)=O)n1	11%	>57
95	O=C(CCC(=O)N1CCc2ccccc21)N1CCc2ccccc21	-15%	>57
96	COc1ccccc1CN1CCCC2(CCN(S(C)(=O)=O)CC2)C1	-1%	>57
97	OCCNc1ccc(Cl)cc1	4%	>57
98	COc1ccccc1C1C(C(C)=O)=C(O)C(=O)N1CCc1ccccc1 (configuration not stated)	1%	·
99	CCC(C)(C)NC(=O)C(c1cccn1C)N(Cc1ccccc1)C(=O)Cn1nnc2ccccc21 (configuration not stated)	-8%	>57
100	O=S1(=O)N=C(SCCO)c2ccccc21	-3%	>57

A draw from above in order of count of non-hydrogen atoms, low to high:
#	SMILES	Anthrax LT inh	Prx2 Sm inh
92	COC(=O)c1oc2ccc(Br)cc2c1NC(=O)CCN1CCOCC1	-2%	>57
93	CC(=O)Nc1sc(C)c(C)c1CN1CCN(S(=O)(=O)c2ccccc2)CC1	3%	>57
91	Cc1cc(C)nc(SCc2nnc(SCC(=O)N3CCCc4ccccc43)o2)n1	-22%	>57
89	CCOc1ccc(CCNC(=O)C2CCCN(c3nnc(-n4cccc4)s3)C2)cc1OCC (configuration not stated)	1%	>57

Next section:
#	SMILES	Anthrax LT inh	Prx2 Sm inh
101	CCC(=O)N1CCCc2cc(S(=O)(=O)N3CCC(N4CCCCC4)CC3)ccc21	17%	>57
102	CCN1CCN(c2nc(-c3cccnc3)nc3ccccc23)CC1	-13%	>57
103	Cn1c(SCC(=O)NC(C)(C)C)nnc1-c1ccc(C(C)(C)C)cc1	-19%	>57
104	Cc1ccc(-n2nnc3c(=O)n(Cc4cccc(C)c4)cnc32)cc1	-16%	>57
105	CC(C)C#N	6%	·
106	Cc1cccc(N2C(=O)CC(Sc3nc(C)c4c(n3)CCCC4)C2=O)c1 (configuration not stated)	-5%	>57
107	CCCc1nc(-c2cc3ccc(C)cc3[nH]c2=O)no1	4%	>57
108	O=C(c1cc(-c2ccc(O)cc2)on1)N1CCCc2ccccc21	-23%	>57
109	O=C(NCN1CCc2ccccc2C1)c1cnccn1	0%	>57
110	O=C(c1coc2ccc(O)cc12)C1CC1	14%	·
111	O=C(CN(C1CCCCC1)S(=O)(=O)c1ccc(F)cc1)NCCCO	-9%	·
112	Cn1c(=O)c2c(nc(CN3CCC(C(N)=O)CC3)n2Cc2c(F)cccc2Cl)n(C)c1=O	-9%	>57
113	CCOC(=O)N1CCN(C(=O)CSCC(=O)Nc2nc(-c3ccc(Cl)s3)cs2)CC1	-13%	>57
114	CCOC(=O)c1ccc(NC(=O)C2CCCO2)cc1 (configuration not stated)	-24%	>57
115	Nc1cc(-c2ccco2)no1	7%	>57
116	C[C@H](NC(=O)NCCc1ccccc1)C(=O)O	3%	>57
117	O=C(Nc1cccc(F)c1)N1CC2(CCN(S(=O)(=O)c3ccccc3)CC2)C1	?	>57
118	O=C(c1ccc(F)cc1)C1CCN(CCn2c(=S)[nH]c3ccccc3c2=O)CC1	?	>57
119	O=c1[nH]c2cc(Cl)ccc2n1-c1ccccc1	1%	>57
120	Cc1ccc(C)c(-n2c(Cc3cc(=O)[nH]c(=O)[nH]3)nnc2SC(C)C)c1	-5%	>57
121	CCNc1ncc2nc(-c3cn(C)c4ccccc34)c(=O)n(C)c2n1	?	>57
122	Cc1ccc(N)cc1Cl	?	·
